Source: PubChem BioAssay
DUX4 txn inh: DUX4-mediated transcription inhibition; 0.8% of 37,000 active; AID 1224904; activity change, negative = inhibition, % (concentration not given with the values); 293T-iDUX4 ZSCAN4-Gaussia luciferase reporter, 24 h; active compounds read low;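 active means -10% or lower and over 25 points stronger than a control reporter; inconclusive means -10% or lower with a smaller gap; inactive means above -10%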;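 further: 0% = median of neutral control wells and -100% = median of positive control wells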
DUX4 txn inh difference: recorded beside DUX4 txn inh, whose call it bears; Gaussia minus Italica difference, %; measured here: selective DUX4 reporter inhibition;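 worked out from the two reporters; negative = selective loss of the DUX4 reporter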
DUX4 txn inh control: second read-out of DUX4 txn inh, no call of its own (marks repeat the call); activity change, negative = inhibition, %; measured here: Italica tet-on control reporter;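 0 = neutral control and -100 = positive control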
* = called active by the depositor; ? = inconclusive; . = no result given; & = joins results of further samples.

DUX4 txn inh	DUX4 txn inh difference	DUX4 txn inh control	Compound
7	4	3.1	CCCC(=O)Nc1ccc2c(c1)C(=O)N(C)C[C@H](OC)[C@@H](C)CN(C(=O)c1ccccn1)[C@@H](C)CO2
6	38	-32	COc1cccc(-c2ccc3c(c2)[C@H]2[C@H](CCN2C(=O)CC2CC2)[C@H](CO)N3C)c1
10	14	-3.9	COc1ccc(-c2ccc([C@@H]3[C@@H](CO)N4C(=O)CN(C(=O)c5ccc6c(c5)OCO6)C[C@H]34)cc2)cc1
5	-1	5.8	C[C@@H]1CCCCO[C@@H](CN(C)Cc2ccc3c(c2)OCO3)[C@@H](C)CN([C@H](C)CO)C(=O)c2cc(NS(=O)(=O)c3cn(C)cn3)ccc2O1
3	0	3.1	COc1ccc(CN(C)C[C@@H]2Oc3ccc(NC(=O)Nc4c(C)noc4C)cc3C(=O)N([C@H](C)CO)C[C@H]2C)cc1
16	10	5.7	N#C[C@@H]1[C@@H](c2ccccc2C2=CCCCC2)[C@H](CO)N1C(=O)CN1CCOCC1
1	0	0.8	C[C@H]1CN([C@@H](C)CO)S(=O)(=O)c2ccc(C#Cc3ccncc3)cc2O[C@H]1CN(C)S(=O)(=O)c1ccc(F)cc1
-2	-2	0.7	Cc1ccc(S(=O)(=O)Nc2ccc3c(c2)C(=O)N([C@@H](C)CO)C[C@H](C)[C@H](CN(C)S(=O)(=O)c2cccs2)OCCCC[C@@H](C)O3)cc1
-3&0	-3&-3	-0.1&3.2	CN1C(=O)c2cc(NC(=O)c3cccc(F)c3)ccc2OC[C@H]2O[C@@H](CC(=O)NCC3CCCCC3)CC[C@H]21
6	-2	7.4	CC(=O)N1[C@H](C(=O)N(C)C)[C@@H](CO)[C@@H]2Cn3c(ccc(-c4ccccc4F)c3=O)[C@@H]21
-1	0	-1.4	CO[C@H]1CC[C@@H]2CCN(C)C(=O)[C@@H](C)[C@H](OC)CN(C)C(=O)c3cccc(C#N)c3OC[C@@H]1O2
-2	-1	-0.7	COc1ccc2c3c([nH]c2c1)[C@@H](CO)N(C(=O)c1ccc(F)cc1)CC31CN(C(=O)NC(C)C)C1
-3	-6	3.0	C[C@@H]1CN([C@@H](C)CO)C(=O)CCCn2nncc2CO[C@@H]1CN(C)S(=O)(=O)c1ccc(Oc2ccccc2)nc1
-7	-2	-4.6	COc1cccc(CNC(=O)[C@H]2N[C@H]3c4ccc(/C=C/c5ccccc5)c(=O)n4C[C@H]3[C@@H]2CO)c1
15	4	11	COc1ccc2c3c(n(C)c2c1)[C@@H](CO)N(CC1CCOCC1)CC31CN(C(C)=O)C1
-5	-4	-1.6	CN(C)CC(=O)N1[C@H](CO)[C@@H](c2ccc(C#CC3CCCC3)cc2)[C@@H]1C#N
0	-4	4.7	O=C1N[C@@H](Cc2ccccc2)COCc2cnnn2CC[C@@H]1Cc1cccc(F)c1
-10	-11	1.5	CC(=O)N1[C@H](CO)[C@H](c2ccccc2)C12CN(S(=O)(=O)c1ccccc1)C2
-47*	-34*	-13*	CC(C)NC(=O)N1CCCCN2[C@H](C1)[C@@H](c1ccc(C#Cc3ccccc3F)cc1)[C@@H]2CO
-1	-2	1.6	COc1ccccc1NC(=O)N1[C@@H](C#N)[C@H](c2ccccc2)[C@@H]1CO

DUX4 txn inh	DUX4 txn inh difference	DUX4 txn inh control	Compound
6	5	1.1	COc1cc(CN2CC3(CCN(S(=O)(=O)c4cn(C)cn4)CC3)c3c(n(C)c4cc(OC)ccc34)[C@@H]2CO)cc(OC)c1
-9	-4	-5.2	O=C(Nc1ccc2c(c1)OCO2)N1[C@@H]2CNC[C@H]1C2c1ccc(/C=C/c2ccccc2)cc1 (stereo partly specified)
?	.	.	Cc1ccccc1S(=O)(=O)N1CCCCN2[C@H](C1)[C@@H](c1ccc(C#CCN(C)C)cc1)[C@@H]2CO
5	-1	5.5	COc1cccc(NC(=O)N2C[C@@H](O)COC[C@H]3O[C@@H](CC(=O)NC4CCCC4)CC[C@@H]32)c1
2	1	1.0	CCCNC(=O)N(C)C[C@H]1Oc2ncc(-c3ccc(C(=O)N(C)C)cc3)cc2C(=O)N([C@H](C)CO)C[C@H]1C
0	0	-0.3	COc1cccc(-c2ccc3n(c2=O)C[C@H]2N[C@@H]3[C@@H](C(=O)N3CCCCC3)[C@@H]2CO)c1
12	13	-0.7	CC(=O)N(C)C[C@@H]1OCc2ccccc2-c2ccccc2C(=O)N([C@@H](C)CO)C[C@H]1C
8	4	3.2	CCC(=O)N1[C@H](CO)[C@H](c2ccccc2)C12CN(C(=O)Nc1cccc(OC)c1)C2
-50*	-46*	-4.3*	CCCC(=O)N1CCC2(CC1)CN(Cc1ccc(Cl)cc1)[C@@H](CO)c1[nH]c3cc(OC)ccc3c12
4	2	2.1	N#C[C@@H]1[C@@H](c2ccc(-c3ccc(F)cc3)cc2)[C@@H](CO)N1C(=O)Cc1ccccc1
?	.	.	CCCNC(=O)N1[C@H](C#N)[C@H](c2ccccc2C2=CCCCC2)[C@@H]1CO
-2	-1	-1.4	C[C@H](CO)N1C[C@H](C)[C@H](CN(C)Cc2ccc(C(=O)O)cc2)Oc2c(NS(=O)(=O)c3ccccc3)cccc2C1=O
-2	0	-2.2	CC=Cc1ccc2n(c1=O)C[C@@H]1[C@@H](CO)[C@H](C(=O)NCC3CC3)N(C(=O)CC3CC3)[C@H]21 (mixture of isomers)
4	0	4.0	Cc1ccc(S(=O)(=O)N[C@@H]2C=C[C@H](CC(=O)NC3CCCCC3)O[C@H]2CO)cc1
5&2	-5&-6	10&8.4	COc1ccc(-c2ccc(C3[C@H]4CNC[C@@H]3N4S(=O)(=O)c3cccc(C)c3)cc2)cc1 (stereo partly specified)
?	.	.	COc1cccc(C#Cc2ccc([C@H]3[C@H](CO)N4C(=O)CN(C(=O)Cc5ccccc5)C[C@@H]34)cc2)c1
-4	-8	4.5	O=S(=O)(Cc1ccccc1)N1CCCCN2[C@H](CO)[C@@H](c3ccc(-c4cccnc4)cc3)[C@@H]2C1
4	3	1.0	CCCNC(=O)N(C)C[C@@H]1Oc2cc(C#C[C@H](C)O)ccc2S(=O)(=O)N([C@@H](C)CO)C[C@H]1C
3	3	-0.4	C[C@H](CO)N1C[C@H](C)[C@@H](CN(C)C(=O)C2CC2)OCc2cn(nn2)CCCC1=O
5	4	1.0	CO[C@H]1CN(C)C(=O)c2ccc(NC(=O)c3cccc(F)c3)cc2OC[C@H](C)NC[C@H]1C

Next section, starting with the last 4 of the part before.
DUX4 txn inh	DUX4 txn inh difference	DUX4 txn inh control	Compound
-4	-8	4.5	O=S(=O)(Cc1ccccc1)N1CCCCN2[C@H](CO)[C@@H](c3ccc(-c4cccnc4)cc3)[C@@H]2C1
4	3	1.0	CCCNC(=O)N(C)C[C@@H]1Oc2cc(C#C[C@H](C)O)ccc2S(=O)(=O)N([C@@H](C)CO)C[C@H]1C
3	3	-0.4	C[C@H](CO)N1C[C@H](C)[C@@H](CN(C)C(=O)C2CC2)OCc2cn(nn2)CCCC1=O
5	4	1.0	CO[C@H]1CN(C)C(=O)c2ccc(NC(=O)c3cccc(F)c3)cc2OC[C@H](C)NC[C@H]1C
1	-5	5.3	CC(=O)N1CC(=O)N2[C@H](CO)[C@H](c3ccc(-c4ccc(C#N)cc4)cc3)[C@H]2C1
-2	-3	0.5	CC(=O)NC[C@H]1[C@H](c2ccc(-c3ccccc3)cc2)[C@@H](CO)N1C(=O)C1CCC1
4	-1	4.4	O=C(C[C@@H]1CC[C@@H](NC(=O)Nc2cc(F)ccc2F)[C@H](CO)O1)NCc1ccncn1
0	-1	1.5	COc1ccc2c3c(n(C)c2c1)[C@@H](CO)N(C(=O)c1cccc(F)c1)CC31CCN(CC2CC2)CC1
-5	-7	1.7	COc1cccc(CNC(=O)[C@@H]2[C@@H](CO)[C@@H]3Cn4c(ccc(-c5cccnc5)c4=O)[C@H]2N3C(C)=O)c1
9	11	-1.3	CN(C)C(=O)[C@@H]1[C@@H](CO)[C@@H]2Cn3c(ccc(-c4ccccc4)c3=O)[C@H]1N2C(=O)C1CCC1
15	9	6.1	CCCC#Cc1ccc([C@H]2[C@H]3CN(C(=O)CN4CCOCC4)CC(=O)N3[C@H]2CO)cc1
8	1	6.8	Cc1cccc(S(=O)(=O)N2CC[C@@H]3[C@@H](CO)Nc4ccc(C#Cc5ccc(F)cc5)cc4[C@@H]32)c1
-1	-2	0.4	O=C(Nc1ccc2c(c1)[C@H]1C[C@@H](CC(=O)N3CCCCC3)O[C@@H](CO)[C@H]1O2)NC1CCCCC1
9	3	5.8	N#C[C@@H]1[C@H](c2ccccc2-c2cccc(F)c2)[C@@H](CO)N1C(=O)CN1CCOCC1
?	.	.	COc1cccc(CN2C[C@@H]3N[C@H](C2)C3c2ccc(-c3ccccc3OC)cc2)c1 (stereo partly specified)
18	19	-1.1	COc1ccc2c3c(n(C)c2c1)[C@H](CO)N(C)CC31CN(S(=O)(=O)c2cn(C)cn2)C1
11	3	8.0	COc1ccc(NC(=O)N2CC3(C2)CN(C(C)=O)[C@H](CO)c2[nH]c4cc(OC)ccc4c23)cc1
1	2	-0.8	CC(C)C#Cc1ccc2c(c1)O[C@H](CN(C)C(=O)Nc1ccccc1)[C@H](C)CN([C@H](C)CO)S2(=O)=O
-5	-3	-2.2	COC(=O)C[C@@H]1CC[C@@H]2[C@@H](COc3ccc(NC(=O)Nc4c(C)noc4C)cc3C(=O)N2C)O1
-5	-4	-1.1	COc1ccc(S(=O)(=O)N(C)C[C@@H]2OCCCC[C@H](C)Oc3ccc(NC(=O)Nc4cccc5ccccc45)cc3C(=O)N([C@H](C)CO)C[C@H]2C)cc1
-2	-5	3.2	C[C@@H](NC(=O)C[C@@H]1CC[C@@H](NC(=O)Cc2ccccn2)[C@@H](CO)O1)c1ccccc1
2	-3	4.3	COCC(=O)Nc1ccc2c(c1)C(=O)N(C)C[C@H](OC)[C@@H](C)CN(Cc1cncnc1)[C@@H](C)CO2
9	6	3.4	CCN1[C@@H]2c3ccc(C4=CCCCC4)c(=O)n3C[C@@H]2[C@@H](CO)[C@@H]1C(=O)OC
-4	-6	1.3	CCC(=O)N1CC2(C1)[C@H](c1ccc(-c3cccc(OC)c3)cc1)[C@H](CO)N2C(C)=O

DUX4 txn inh	DUX4 txn inh difference	DUX4 txn inh control	Compound
-4	-6	2.9	CN(C)CC(=O)Nc1ccc2c(c1)[C@@H]1C[C@H](CC(=O)NCCc3ccccc3)O[C@@H](CO)[C@@H]1O2
8	-5	13	C[C@H](CO)N1C[C@H](C)[C@@H](CN(C)C(=O)Nc2ccccc2)Oc2ccc(NS(C)(=O)=O)cc2CC1=O
3	-4	7.2	CN(C)CCCNC(=O)C[C@H]1CC[C@@H]2[C@@H](COc3ccc(NS(C)(=O)=O)cc3C(=O)N2C)O1
?	.	.	N#Cc1cccc(-c2ccc([C@@H]3[C@H]4CN(Cc5ccccc5F)CCCCN4[C@H]3CO)cc2)c1
?	.	.	COc1ccc(NC(=O)N2CC(=O)N3[C@@H](CO)[C@@H](c4ccc(C5=CCCC5)cc4)[C@@H]3C2)cc1
6	2	3.9	CCNC(=O)C[C@@H]1CC[C@@H]2[C@H](COC[C@@H](O)CN2C(=O)Nc2c(C)noc2C)O1
-3	-5	2.0	COc1ccccc1CNC(=O)C[C@@H]1C=C[C@@H](NC(=O)CC2CC2)[C@H](CO)O1
2	0	1.5	COc1ccccc1CNC(=O)C[C@@H]1C[C@H]2c3cc(NC(=O)c4ccc5c(c4)OCO5)ccc3O[C@H]2[C@@H](CO)O1
5	1	4.7	O=C(C[C@@H]1CC[C@H]2[C@@H](COC[C@H](O)CN2C(=O)C2CCOCC2)O1)NCc1ccncc1
8	-2	9.6	O=C(C[C@@H]1CC[C@@H]2[C@H](COC[C@H](O)CN2Cc2nccs2)O1)NCc1ccc(Cl)cc1
6	-9	15	CCCC#Cc1ccc([C@@H]2[C@H](CO)N3CCCCN(S(=O)(=O)c4ccccc4F)C[C@@H]23)cc1

Limited to DUX4 txn inh, for three of the compounds above:
SMILES	DUX4 txn inh
C[C@H](CO)N1C[C@H](C)[C@@H](CN(C)C(=O)Nc2ccccc2)Oc2ccc(NS(C)(=O)=O)cc2CC1=O	8
CN(C)CCCNC(=O)C[C@H]1CC[C@@H]2[C@@H](COc3ccc(NS(C)(=O)=O)cc3C(=O)N2C)O1	3
N#Cc1cccc(-c2ccc([C@@H]3[C@H]4CN(Cc5ccccc5F)CCCCN4[C@H]3CO)cc2)c1	?

Only part of the results is shown; count on the stated rates, not on these rows.
